Bst PK mod: Pyruvate Kinase; actives 1.2% (n = 51,000); Potency, µM; partly purified Bacillus stearothermophilus pyruvate kinase, luminescence ATP production; ribose 5-phosphate activator present at AC10; in the data active means potency below about 11 µM; inconclusive means mostly about 12 µM to 25 µM; inactive means weaker than that;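 the screen sought inhibitors and activators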;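 further: potency means the concentration at half of the fitted maximal effect; scaled between full activation by ribose 5 phosphate and full inhibition by luteolin; about four in five hits inhibit and the cells do not say which; series up to 57 µM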
YjeE inh: qHTS Assay for Inhibitors of YjeE; AID 605, 2007; purified YjeE, fluorescence polarisation of a bound ADP probe; Potency, µM; actives 0.05% (n = 71,000); tRNA threonylcarbamoyladenosine biosynthesis protein TsaE (Escherichia coli (strain …; active = well fitted falling curve; inconclusive = weaker or top-dose-only fall, or a rising curve; inactive = flat or poorly fitted curve;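 further: top concentration of the series not given in the record; excess ADP was the control for the full effect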
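Fluorescence polarization of a BODIPY Texas Red–ADP probe (2 uM) bound to purified YjeE (10 uM) was read after 15 min room-temperature incubation with compounds. Loss of polarization marks inhibitors; ADP serves as titrated control.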
An asterisk follows results filed as active; i = inactive; ? = inconclusive; . = no result given.

SMILES	Bst PK mod	YjeE inh
CNc1cccccc1=S	>57	i
CC(=NCc1ccco1)C1=C(O)c2ccccc2C1=O	>57	i
O=c1c(-c2cccs2)nc2cnc(Oc3ccccc3)nc2n1-c1ccccc1	.	i
O=C(CN1CCOc2ccccc21)NCc1ccc(Cl)cc1	.	i
c1csc(-c2cnc3ccccc3n2)c1	i	i
CC1(C)NC(=O)N(CCOCCOc2cccc(Oc3ccccc3)c2)C1=O	>57	i
CCN1C(=O)CC(N2CCC(C(=O)OC)CC2)C1=O (centres undefined)	>57	i
OC(COc1c(F)cc(Br)cc1F)CN1CCN(c2ccc(F)cc2)CC1 (centres undefined)	>57	i
C=CCn1cc(C(=O)NCCOC)c(=O)c2cc(S(=O)(=O)N(CC)CC)ccc21	>57	i
COc1ccc(O)c(C(=O)c2cc(C#N)c(=O)n(-c3c(C)n(C)n(-c4ccccc4)c3=O)c2)c1	>57	i
COC(=O)CCc1c(C)[nH]c(C(=O)OCc2ccccc2)c1C	>25.6	.
CN(Cc1ccccc1)c1ncnc2c1cnn2-c1ccccc1	?	i
S=c1[nH]c2ccccc2s1	.	i
O=C(CN1CCN(C2CCCCC2)CC1)Nc1ccccc1-c1ccccc1	>57	i
CC(=O)c1ccc(NC(=O)CCn2c(=O)oc3ccccc32)cc1	>57	i
CCN(CC)S(=O)(=O)c1ccc2oc(C(=O)N3CCOCC3)c(C)c2c1	>57	i
COc1ccc(S(=O)(=O)N2CCC(C(=O)NCc3ccco3)CC2)cc1	>57	i
c1ccc(-c2n[nH]c3c2CCC3)cc1	.	i
Brc1ccc(-c2nnc3sc(CN4CCc5ccccc5C4)cn23)cc1	>57	i
Cc1cc(C)c2c(n1)nn1c(N3CCN(c4ccccn4)CC3)cc(C)nc21	>57	i

Grouped by structure, those above with sulfur (8)
SMILES	Bst PK mod	YjeE inh
CNc1cccccc1=S	>57	i
O=c1c(-c2cccs2)nc2cnc(Oc3ccccc3)nc2n1-c1ccccc1	.	i
c1csc(-c2cnc3ccccc3n2)c1	i	i
C=CCn1cc(C(=O)NCCOC)c(=O)c2cc(S(=O)(=O)N(CC)CC)ccc21	>57	i
S=c1[nH]c2ccccc2s1	.	i
CCN(CC)S(=O)(=O)c1ccc2oc(C(=O)N3CCOCC3)c(C)c2c1	>57	i
COc1ccc(S(=O)(=O)N2CCC(C(=O)NCc3ccco3)CC2)cc1	>57	i
Brc1ccc(-c2nnc3sc(CN4CCc5ccccc5C4)cn23)cc1	>57	i

(cont.)
SMILES	Bst PK mod	YjeE inh
c1ccc2c(c1)-c1ccccc1C2N1CC2CCC(CC2)C1	.	i
CS(=O)(=O)Nc1cccc(-c2nc(NCCN3CCOCC3)c3ccccc3n2)c1	.	i
CCOC(=O)C1CCN(C(=O)c2ccc3snnc3c2)CC1	>11.4	i
O=C(CN1CCOCC1)Nc1ccc(C2CCCCC2)cc1	>57	i
Cc1cc(Nc2nc3c(c(=O)n(C)c(=O)n3C)n2C)n(-c2ccccc2)n1	>57	i
CCOC(=O)C1=C(C)N=c2s/c(=C\c3ccncc3)c(=O)n2C1c1ccc2c(c1)OCO2 (centres undefined)	>57	i
Clc1ccc2[nH]c3c(c2c1)CCc1cn[nH]c1-3	.	i
CN(C)CCCN1C(=O)C(=O)/C(=C(/O)c2ccc3c(c2)OCCO3)C1c1ccco1 (centres undefined)	>57	i
N=C(N)c1ccc(OCCCCCOc2ccc(C(=N)N)cc2)cc1	.	i
N#Cc1ccc(CN2CC3(CCN(C(=O)c4csnn4)CC3)C2)cc1	.	i
NC(=O)c1ccccc1NS(=O)(=O)Cc1ccccc1	.	i
CS(=O)(=O)Nc1ccccc1C(=O)N1CCOCC1	>57	i
CCc1c(C)nc2[nH]nc(-c3ccccc3)n2c1=O	.	i
O=C(COC(=O)C12CC3CC(CC(O)(C3)C1)C2)NC(=O)NCc1ccco1	>57	i
Cc1ccc(OCCN2C(=O)CSC2=O)cc1	>57	i
Cc1nc(N2CCN(Cc3ccccc3)CC2)nc2c1C(=O)CCC2	>57	i
c1ccc(CCNc2ccccn2)nc1	.	i
Cc1cc(C)c(S(=O)(=O)NCc2cn3c(C)csc3n2)c(C)c1	>57	i
COc1ccc(-c2nc3cnc(N4CCN(C)CC4)nc3n(Cc3cccc(OC)c3)c2=O)cc1	.	i
C=CCOc1ccc(C(=O)N(Cc2ccc(N(C)C)cc2)C2CCS(=O)(=O)C2)cc1 (centres undefined)	>57	i
CCN1CCN(C(=O)Cn2c(=O)sc3ccccc32)CC1	.	i
Nc1nc(-c2ccccc2Br)cs1	>57	i
Cc1[nH]nc2c1C(=O)CCC2	>57	i
O=C(CSc1ncccc1-c1nc2ccccc2[nH]1)NC1CC1	>57	i
Cc1ccc(C2=[N+]([O-])C3(CCCCC/C3=N\O)N(O)C2(C)C)o1 (centres undefined)	.	i
CC(C(=O)NCc1ccccc1)N1C(=O)CN(C)C(=O)c2ccccc21 (centres undefined)	>57	i
Cn1ccnc1SCC(=O)Nc1cccc2ccccc12	.	i
O=C(C1CCC(=O)N1Cc1ccccc1Cl)N1CCN(c2cccc(Cl)c2)CC1 (centres undefined)	>57	i
O=C(NC1CCCC1)C1C2C=CC3(CN(Cc4cccs4)C(=O)C13)O2 (centres undefined)	.	i
CCN(CC)CCN1C(=O)C(=O)/C(=C(/O)c2c(C)[nH]c(C(=O)OC)c2C)C1c1cccc(OC)c1 (centres undefined)	>25.6	.
O=C1OC2(CCCCC2)OC(=O)C1=CNc1nccs1	>57	i
CCOC(=O)N1CCC(NCCNC(=O)c2ccccc2)CC1	>57	i
NC(=O)c1ccc2c(c1)OCCO2	>57	i
O=C(CN1CCN(Cc2ccc3c(c2)OCO3)CC1)Nc1ccc2c(c1)OCCO2	>57	i
c1csc(-c2nc3ccccc3[nH]2)c1	.	i
CSc1nnc(-c2cnccn2)n1C	>57	i
CCOc1ccccc1C(=O)NC1CC2CCCC(C1)N2C1CC1 (centres undefined)	>57	i
CC(=O)c1cccc(N(C(=O)c2ccco2)C(C(=O)NC2CCCC2)c2ccncc2)c1 (centres undefined)	>57	i
CN(Cc1ccco1)c1ncnc2ccc(-c3cccc(NS(C)(=O)=O)c3)cc12	.	i
CCOC(=O)CN(C(=O)CSc1nnc(-c2ccncc2)n1CCCN(C)C)c1ccccc1	>57	i
CC(=O)NC(C)c1nc2ccccc2n1C(C)C (centres undefined)	.	i
COC(=O)c1ccccc1NC(NC(=O)c1ccco1)C(=O)c1ccc(C)cc1 (centres undefined)	.	i
Clc1ccc(-c2ccc(-c3nn4c(-c5ccco5)nnc4s3)o2)cc1	?	i
CCn1c(CCNC(=O)c2ccc(Cl)cc2)nnc1SCC(=O)NC1CCCC1	>57	i
CCC(=O)c1ccc(OCC(O)Cn2cnc3ccccc32)cc1 (centres undefined)	>57	i
CCOC(=O)c1[nH]c(=O)[nH]c1CSc1nc(C)cc(C)n1	.	i
CC(C)(C)n1nnnc1CN1C2CCC1CC(NC(=O)Nc1ccccc1)C2 (centres undefined)	>57	i
O=C(O)c1cc(-c2ccccc2)n(-c2ccccc2C(=O)O)n1	>57	i
COc1ccc(OC)c(NS(=O)(=O)c2ccc(SC)cc2)c1	>57	i
Cc1noc(C)c1C(=O)N1CCC2(CC1)CN(Cc1cc(C(F)(F)F)cc(C(F)(F)F)c1)C2	.	i
O=C1c2ccccc2C(=O)N1c1ccc(Cc2ccc(N3C(=O)c4ccccc4C3=O)cc2)cc1	.	i
C[C@@]1(CO)[C@H](O)CC[C@]2(C)[C@@H]1CC[C@H]1C[C@H]3C[C@]12CC[C@]3(O)COC(=O)CN	.	i
CN(C)Cc1cc(Cl)c(O)c(CN(C)C)c1	.	i
CN1CC(=O)N(C)c2nc(Br)n(C)c2C1=O	>57	i
CCn1cc(Br)c(C(=O)Nc2cccc(SC)c2)n1	.	i
Cc1cccc(C(=O)Nc2ccc(CC(=O)O)cc2)c1	.	i
COCCCNC(=O)c1oc2ccc(S(=O)(=O)N(C)C3CCCCC3)cc2c1C	>57	i
COc1ccc(-c2nc(N3CCCC3)[nH]c(=O)c2C#N)cc1	>57	i
Cc1c(C(=O)Nc2ccccc2N2CCOCC2)sc2nc3n(c(=O)c12)CCC3	>57	i
Nc1nonc1-c1noc(CCCN2C(=O)c3ccccc3C2=O)n1	>57	i

(more compounds)
SMILES	Bst PK mod	YjeE inh
COc1ccc2nc3oc(C(=O)N4CCN(c5cccc(Cl)c5)CC4)cc3cc2c1	>57	i
Cc1ccc(S(=O)(=O)N(CCO)Cc2cc3ccc(C)c(C)c3[nH]c2=O)cc1	>57	i
CCc1ccc(C2C3=C(CC(C)(C)CC3=O)Nc3c2c(=O)[nH]c2nc(C)nn32)cc1 (centres undefined)	>57	i
CCc1c(C)c2ccc(OCC(N)=O)cc2oc1=O	>57	i
COc1ccc(-c2nc(CSCC(=O)N3CCN(c4cccc(C)c4)C(C)C3)c(C)o2)cc1OC (centres undefined)	.	i
COc1cc2c(cc1OC)C(C(=O)O)C(c1cc(Br)c(O)c(OC)c1)N(C)C2=O (centres undefined)	>57	i
CCOc1ccc(CN2CCN(c3cc(C)nc4c5c(C)cc(C)nc5nn34)CC2)cc1	>57	i
CCCn1c(SCC(=O)Nc2c(CC)cccc2CC)nnc1C(C)C	>57	i
CCCCc1ccc(Nc2nc(CCC)cc(=O)[nH]2)cc1	>57	i
COC(=O)c1c(C)[nH]c(C)c1-c1ccccc1Cl	>57	i
CCOc1ccc(N(C(C)C(=O)Nc2ccc(OC)cc2)S(C)(=O)=O)cc1 (centres undefined)	.	i
N=c1c(S(=O)(=O)c2ccccc2)cc2c(=O)n3ccccc3nc2n1CC1CCCO1 (centres undefined)	>57	i
O=S1(=O)CCC(NS(=O)(=O)c2cccc3cccnc23)C1 (centres undefined)	?	i
O=C(NCC1CCCO1)c1ccc2c(=O)n(CCc3ccccc3)c(=O)[nH]c2c1 (centres undefined)	>57	i
COc1cc(NC(=O)Cc2ccccc2)ccc1NC(=O)c1ccco1	.	i
CC[C@@](N)(C(=O)O)c1ccc(C(=O)O)cc1	.	i
Nc1nnc(Cc2ccc(Cl)cc2)s1	>57	i
CS(=O)(=O)Nc1cccc(-c2cncnc2NCc2cccs2)c1	.	i
CCc1nc(SCC(=O)Nc2c(C)n(C)n(-c3ccccc3)c2=O)n[nH]1	>57	i
O=C(Nc1nc2c(s1)CCCC2)c1cccs1	9.71*	i

An excerpt from further up:
SMILES	Bst PK mod	YjeE inh
CS(=O)(=O)Nc1cccc(-c2cncnc2NCc2cccs2)c1	.	i
CCc1nc(SCC(=O)Nc2c(C)n(C)n(-c3ccccc3)c2=O)n[nH]1	>57	i
O=C(Nc1nc2c(s1)CCCC2)c1cccs1	9.71*	i

The results go on.
SMILES	Bst PK mod	YjeE inh
O=C(c1cc(-c2ccccn2)nc2c(Cl)cccc12)N1CCN(C(=O)C2CCCO2)CC1 (centres undefined)	>57	i
O=C(CCNc1ccc(F)cc1)c1ccco1	>57	i
CC(=O)c1nnn(-c2nc(N)nc(N(c3ccccc3)c3ccccc3)n2)c1C	>57	i
CCOC(=O)c1c(C)[nH]c(C(=O)OCc2c(C)noc2C)c1C	>57	i
CCN(C(=O)N(CC)c1ccccc1)c1ccccc1	.	i
c1cncc(Oc2cccc(Oc3cccnc3)c2)c1	>25.6	.
O=C(/C=C/N1CCOCC1)c1cc2ccccc2o1	.	i
CCOC(=O)CNc1nc(-c2ccncc2)nc2ccccc12	.	i
COc1cccc(-n2c(C)c(C(C)=O)c(C(C)=O)c2C)c1	>57	i
COCCN(CCOC)S(=O)(=O)c1ccc(C(=O)Nc2nc(C)c(C(C)=O)s2)cc1	>57	i
CCn1ncc(Br)c1C(=O)Nc1sc2c(c1C(N)=O)CCC2	>57	i
COc1ccc(C2C(C#N)=C(N)OC(C(C)(C)C)=C2C#N)cc1OC (centres undefined)	>57	i
COc1ccc(-c2nc(C)c(C(C)=O)n2O)cc1OC	.	i
Cc1cccc(OCCn2c(=O)n(C)c3ccccc32)c1	.	i
COC(=O)N1CCC[C@@]2(CCN(C(=O)Nc3cccc(C#N)c3)C2)C1	.	i
O=C(CN1CCN(S(=O)(=O)c2ccc(Br)cc2)CC1)Nc1ccc(F)cc1F	>57	i
COc1ncc2nc(-c3ccccc3)c(=O)n(CCC#N)c2n1	.	i
CN(CCNC(=O)c1cc2c(=O)n(C)c3ccccc3c2n1C)Cc1ccccc1	.	i
C=CCOc1ccc(C2c3c(oc4ccccc4c3=O)C(=O)N2c2ccccn2)cc1OCC (centres undefined)	.	i
CCOC(=O)NCC(C)(C)CNC(=O)OCC	>57	i
COc1ccc(Cn2nnnc2CN2CCC(c3nc4ccccc4s3)CC2)cc1	>57	i
CCCn1c(SCC(=O)Nc2nnc(CC)s2)nnc1-c1ccco1	>57	i
COc1ccccc1C1N(c2ccc(Cl)cc2)C(=O)C2CCCN21 (centres undefined)	>57	i
CC(=O)c1cccc(OCCN2C(=O)NC(C)(C)C2=O)c1	>57	i
CC1CCCN(S(=O)(=O)c2ccc(NC(=O)Cn3nnc(-c4ccccc4F)n3)cc2)C1 (centres undefined)	>57	i
Cc1oc(-c2cccs2)nc1CS(=O)CC(=O)NC1CCCCCC1 (centres undefined)	.	i
CCn1c(CCn2ccnc2C)n[nH]c1=S	>57	i
C=C(C)CSc1nc2nc(C)cc(C)n2n1	>57	i
Cc1cccc(NC(=O)Cn2c(=O)n(Cc3ccco3)c(=N)c3c4c(sc32)COC(C)(C)C4)c1	>57	i

Source: PubChem BioAssay (National Center for Advancing Translational Sciences (NCATS))

This is a subset; the hit share may differ from the screen's.
